Screens from PubChem BioAssay.
CDC25B CDK2 inh: human CDC25B-CDK2/CyclinA binding inhibition; P30305+P24941; HTRF CDC25B-CDK2/CyclinA binding, anti-His/anti-Flag; active compounds read high; z-score (no concentration beside the values); 94,000 tested, 0.72% active; AID 1259370;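 further: score is relative to mean and SD of negative controls; strong numbers were not always called active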
TAR Tat displ: HIV-1 TAR-Tat binding disruption; HIV-1 TAR RNA, Tat peptide displacement FRET; active compounds read high; z-score (concentration not given with the values); 100,000 tested, 0.6% active;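 further: score is relative to mean and SD of negative controls; some compounds called inactive have numbers as strong as hits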
* hit, by the source's call; x = not tested or not shown.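 How the source made its calls: active means z-score from 3 up in half or more of its runs; inactive means the rest.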

SMILES	CDC25B CDK2 inh	TAR Tat displ
c1ccc(C(NCc2cccs2)c2ccccc2)cc1	0.36	-0.91
CCOc1ccc(/C(O)=C2/C(=O)C(=O)N(CCCN(C)C)C23C(=O)N(CC)c2ccccc23)cc1 (centres undefined)	0.79	-0.43
O=C(CN1CCN(c2nc3cc(Cl)ccc3s2)CC1)Nc1ccc(OC(F)(F)F)cc1	-0.38	x
Cc1nc(N2CCCC(C(=O)NC3CC3)C2)c2c(C)noc2n1 (centres undefined)	x	10.9*
CCS(=O)(=O)c1ccc(O)c(NC(=O)Nc2ccc(OCc3ccccc3)cc2)c1	0.14	x
Cc1cc2nc(C)n(CCCNC(=O)NC3CCCCC3)c2cc1C	-1.34	1.06
O=C(NCCCn1ccnc1)c1cnn2c1NC(c1cccs1)CC2C(F)(F)F (centres undefined)	-2.4	x
C#CCSc1ccccc1C1=NCCCN1	0.1	x
O=C(CCCSc1nc(-c2ccco2)cc(C(F)(F)F)n1)NCc1ccccn1	-0.24	2.35
C[C@@H](O)[C@H]1C(=O)N2C(C(=O)O)=C(SCCN=CN)C[C@H]12	-2.12	x
Cc1cc2c(cc1S(=O)(=O)Nc1c(C)cccc1C(C)C)OCCN2C	x	1.66
FC(F)(F)c1cc(N2COc3cc4c(cc3C2)OCO4)ccc1Cl	-2.35	x
O=S(=O)(CCN(CCCc1ccccc1)S(=O)(=O)c1ccccc1)N1CCNCC1	x	0.61
CCCSc1ncc(Cl)c(C(=O)Nc2sc3c(c2C(=O)OC)CCC3)n1	-0.85	0.91
COc1ccccc1-c1c(C)c(CC(C)C)nc(N)c1C#N	-0.76	0.64
Cc1ccc(C2C(C#N)=C(N)Oc3cc(O)ccc32)cc1 (centres undefined)	-0.31	0.73
CC1(C)CC2C1CCC1(CBr)CCC3C(CC(=O)O)C(=O)OC32C1 (centres undefined)	x	-2.48
O=C(Nc1nnc2n1CCS2)c1ccccc1F	x	0.05
Cc1cccc2c(=O)c(NC(=O)NCCO)c[nH]c12	-2.04	0.87
C=CCSc1nnc(-c2ccc(O)cc2)o1	-0.89	0.25
Cc1ccc(N2C(=O)CC(Sc3ncn[nH]3)C2=O)cc1C (centres undefined)	-1.03	0.69
CC1CCCCN1C(=O)C1=CC(c2ccco2)=NS(=O)(=O)N1C (centres undefined)	0.34	1.22
CC1c2cccn2CCN1C(=O)Nc1ccccc1 (centres undefined)	x	-1.27
COc1ccc(C(=O)NNC(=O)c2snnc2C)cc1	-1.72	x
CC(C)(C)c1ccc2c(c1)CN(c1ccc(C(=O)O)cc1)CO2	-0.05	1.17

(more compounds)
SMILES	CDC25B CDK2 inh	TAR Tat displ
Fc1ccc(-c2cn(-c3ccccc3)c3[n+]2CCS3)cc1	0.38	2.48
Cn1c(=O)oc2cc(S(=O)(=O)N3CCCC(C(=O)Nc4ccc(Cl)cc4)C3)ccc21 (centres undefined)	-0.42	-1.25
O=C(NCCN1CCN(c2nccc(C(F)(F)F)n2)CC1)c1cccs1	-0.86	x
CC(=O)N1CC(C)Sc2ccc(S(=O)(=O)Nc3cc(C)on3)cc21 (centres undefined)	x	0.7
CCOC(=O)c1c(C)[nH]c(C)c1S(=O)(=O)N1CCC(C(=O)N2CCN(C)CC2)CC1	x	1.07
O=C1C=C(I)C(=O)C=C1I	-1.8	x
Cc1nn(CC(=O)Nc2sc3c(c2C(=O)OC(C)C)CCCC3)c(C)c1[N+](=O)[O-]	-1.33	0.17
Cc1ccc(-c2c(C)noc2C)cc1S(=O)(=O)N1CCc2ccccc2C1	x	-0.54
CCOC(=O)CCSc1cc(C)c2ccccc2n1	-0.53	-1.11
O=C(Cn1cnc2onc(-c3ccc(F)cc3)c2c1=O)NCc1ccc2c(c1)OCO2	x	0.13
Cc1ccc(-c2c(C(F)(F)F)nn3c(NC(C)C)cc(C)nc23)cc1	-0.19	-0.81
NC(=O)c1sc2nc3c(cc2c1N)CCCCC3	-0.79	0.49
CC(=O)Oc1ccccc1N1C(=O)c2ccccc2C1=O	-1.81	x
CCc1nnc(NC(=O)C2CCC(CNc3c(N4CCC(C)CC4)c(=O)c3=O)CC2)s1 (centres undefined)	-0.2	1.26
O=C1CCc2cc(S(=O)(=O)N3CCC(C(=O)NC4CCCCC4)CC3)ccc2N1	0.4	x
CCC(CN1CCOCC1)NC(=O)C1CCN(c2ncnc3c2nc2n3CCCCC2)CC1 (centres undefined)	x	-0.71
O=C1CCC(C(=O)N(CC2CCCO2)C2(C(=O)NC3CCCCC3)CCCCC2)N1 (centres undefined)	0.37	x
CC(C)CN(CC(C)C)C(=O)NCc1noc2ccccc12	x	-0.55
COc1ccccc1Nc1nn2c(=O)c3cc4c(cc3nc2s1)OCO4	-2.12	1.51
CCOC(=O)C1CCN(S(=O)(=O)c2c(C(=O)N3CCCCC3)c(C)n(C)c2C)CC1	x	-0.28
Cc1cccc2nc(CSc3nc4[nH]ncc4c(=O)n3-c3cccc(Cl)c3)cc(=O)n12	-0.3	x
O=S1(=O)C[C@H](N2CCN(c3ncccn3)CC2)[C@@H](S(=O)(=O)c2cccs2)C1	-2.13	-1.59
CCCc1nc2n(n1)C1(CCCCC1)[C@@H]1CCCC[C@@H]1N2C(=O)C1CC1	0.19	-0.63
OC(CNCc1cccc(Oc2nnnn2-c2ccccc2)c1)c1ccccc1 (centres undefined)	x	0.41
O=C(O)CCNC(=O)c1ccc(N=Nc2ccc(O)c(C(=O)O)c2)cc1	x	2.33

(next part)
SMILES	CDC25B CDK2 inh	TAR Tat displ
Clc1ccccc1CN1CCN(CC2CC3C=CC2C3)CC1 (centres undefined)	-0.32	-0.24
Cc1cccc(-c2nc3c4c(C)c(C)n(CCN5CCOCC5)c4ncn3n2)c1	-1.07	1.17
Cc1cc(C)c(NC(=O)CSc2cn[nH]c(=O)n2)c(C)c1	0.53	1.2
Fc1ccc(-c2nc(-c3ccncc3)no2)cc1	-1.6	0.72
c1ccc(OCc2nc3ccccc3n2Cc2ccccn2)cc1	-0.28	-0.38
CCc1nnc2c(Nc3ccc(OC)cc3OC)nc3ccccc3n12	x	-1.45
CC1C/C(=N/NC(N)=O)C(C)C(C)S1 (centres undefined)	-0.52	x
Cc1c(C(=O)Nc2ccc(-n3cnnn3)cc2)oc2ccc(Cl)cc12	-0.77	1.22
Cc1noc(C)c1C(=O)N1CCCCC1c1ccccn1 (centres undefined)	-0.28	x
Clc1ccc(-c2cn3cc(Cc4ccccc4)sc3n2)cc1	-0.43	-1.44
CCOC(=O)c1cnn(-c2ccc(C(=O)O)cc2)c1N	-0.25	1.41
Cn1cc(S(=O)(=O)N2CCc3ccccc32)cc1C(=O)Nc1ccc(F)c(Cl)c1	-0.46	1.24
CNC(=O)c1ccc2c(c1)N=C(C)c1cc(C)ccc1S2	1.26	-0.16
COc1ccc(C2C(C(=O)c3cc4ccccc4o3)=C(O)C(=O)N2CCN(C)C)cc1OC (centres undefined)	-0.27	1.11
Cn1nc(-c2ccccc2)cc1NC(=O)c1cc(Cl)sc1Cl	-1.24	x
Cc1nn(C)c(NN2C(=O)c3cccc4cc([N+](=O)[O-])cc(c34)C2=O)c1[N+](=O)[O-]	-3.06	x
COC(=O)c1c(C)oc(C)c1S(=O)(=O)NCc1csc2ccc(Cl)cc12	-3.03	x
NC(=O)C1CCN(C(=O)c2cnn(-c3ccccc3)c2NC(=O)c2ccco2)CC1	-2.02	x
c1ccc(-c2nc3cccnc3nc2N2CCCCC2)cc1	-2.04	0.56
COCCn1c(SCC(=O)NCC2CCCO2)nc2c(c1=O)SC(C)C2 (centres undefined)	-1.05	x
CCN(CC)C(=O)Cn1cnc2sc3c(c2c1=O)CCC3	0.66	x
COc1ccccc1OCC(=O)Nc1nc(-c2ccc(Br)o2)ns1	-1.07	-0.8
CC(=O)N1c2ccc(S(=O)(=O)N3CCC(C)CC3)cc2CC1C (centres undefined)	x	1.19
Cc1cccc(-c2nc(-c3ccc(-c4nc(C)no4)cc3)no2)c1	x	0.43
CCCCCSc1nc2c(c(=O)[nH]c(=O)n2C)n1CCOCC	-1.72	x

Remaining list, next part.
SMILES	CDC25B CDK2 inh	TAR Tat displ
Cc1ccccc1CNC(=O)Nc1sc2nc3n(c(=O)c2c1C)CCC(C)CC3 (centres undefined)	-3.14	0.06
Cc1ccc(-c2nc(CS(=O)(=O)CC(=O)N3CCCC3)c(C)o2)cc1	-0.81	0.13
Fc1ccc(-c2noc3ncnc(Nc4ccc5c(c4)OCCO5)c23)cc1	x	-0.08
CCOC(=O)c1c(NC(=O)c2cc(=O)c3ccc(C)cc3o2)sc(C)c1C	0.74	-0.08
Cc1oc(-c2cccc(Br)c2)nc1CSc1nnc(C)n2c1cc1occc12	x	0.93
Cc1cc(C)c2ccc(=O)n(CC(=O)N/N=C/c3ccccc3Cl)c2n1	-0.31	x
Cc1ccc(S(=O)(=O)N(C)Cc2nc(-c3ccccc3)no2)cc1	-0.54	0.96
Cc1nnc(NC(=O)C(=O)c2cc(C)n(-c3ccc(Cl)cc3)c2C)s1	0.27	1.19
CCN(CC)CCNC(=O)c1cc2c(s1)-c1ccccc1OC2	-0.07	x
CC1CCC(NS(=O)(=O)c2ccc3c(c2)C(C(C)C)C(=O)N3)CC1 (centres undefined)	x	0.36
CC(C)CN(CC(C)C)c1nnc(NC(=O)Cn2c(=O)oc3ccccc32)s1	-1.62	2.84
COc1ccc(-c2cccc(NS(C)(=O)=O)c2)nn1	x	0.95
Fc1ccc(CNc2nc3ccccc3c3nc(-c4cccnc4)nn23)cc1	-2.84	x
CC(C)(C)c1cc2c(=O)[nH]nc(N)c2c(=O)[nH]1	-1.33	x
Cc1ccccc1N1C(=O)N(Cc2cc(=O)n3ccccc3n2)c2ccccc2S1(=O)=O	x	1.1
Cc1c(-c2c(Cl)cccc2Cl)noc1C(=O)CN=S(C)(=O)c1ccc(C(F)(F)F)cn1 (centres undefined)	1.45	x
O=S(=O)(c1ccc2[nH]c3c(c2c1)CCCC3)N1CCOc2ccccc2C1	x	1.8
COc1ccc(CCNc2oc(COc3ccc(OC)cc3)nc2C#N)cc1	-0.01	-1.11
CC1CCN(C(=O)C(NS(=O)(=O)c2ccc3c(c2)CCCC(=O)N3)C(C)C)CC1 (centres undefined)	x	0.58
CCOC(=O)c1c(C)oc2nc(C)nc(NC(C)CC)c12 (centres undefined)	x	0.19
COC(=O)c1c(-c2ccc(Cl)cc2)[nH]oc1=O	-1.15	1.18
COc1ccc(-c2cc(C(=O)Nc3sc4c(c3C(N)=O)CCCC4)no2)cc1OC	1.85	x
CC(C)[C@@H]1CC[C@@H](C)C[C@@H]1P(=O)(c1ccccc1)c1ccccc1	-1.5	x
Cc1ccc2c(n1)sc1c(=O)n(-c3ccccc3)nnc12	-1.57	-0.54
COc1ccc(C2C3=C(Nc4ncnn42)c2ccccc2OC3c2ccc(N(C)C)cc2)cc1 (centres undefined)	x	1.85

15 consecutive entries out of the list so far, for reference:
SMILES	CDC25B CDK2 inh	TAR Tat displ
Cc1ccccc1CNC(=O)Nc1sc2nc3n(c(=O)c2c1C)CCC(C)CC3 (centres undefined)	-3.14	0.06
Cc1ccc(-c2nc(CS(=O)(=O)CC(=O)N3CCCC3)c(C)o2)cc1	-0.81	0.13
Fc1ccc(-c2noc3ncnc(Nc4ccc5c(c4)OCCO5)c23)cc1	x	-0.08
CCOC(=O)c1c(NC(=O)c2cc(=O)c3ccc(C)cc3o2)sc(C)c1C	0.74	-0.08
Cc1oc(-c2cccc(Br)c2)nc1CSc1nnc(C)n2c1cc1occc12	x	0.93
Cc1cc(C)c2ccc(=O)n(CC(=O)N/N=C/c3ccccc3Cl)c2n1	-0.31	x
Cc1ccc(S(=O)(=O)N(C)Cc2nc(-c3ccccc3)no2)cc1	-0.54	0.96
Cc1nnc(NC(=O)C(=O)c2cc(C)n(-c3ccc(Cl)cc3)c2C)s1	0.27	1.19
CCN(CC)CCNC(=O)c1cc2c(s1)-c1ccccc1OC2	-0.07	x
CC1CCC(NS(=O)(=O)c2ccc3c(c2)C(C(C)C)C(=O)N3)CC1 (centres undefined)	x	0.36
CC(C)CN(CC(C)C)c1nnc(NC(=O)Cn2c(=O)oc3ccccc32)s1	-1.62	2.84
COc1ccc(-c2cccc(NS(C)(=O)=O)c2)nn1	x	0.95
Fc1ccc(CNc2nc3ccccc3c3nc(-c4cccnc4)nn23)cc1	-2.84	x
CC(C)(C)c1cc2c(=O)[nH]nc(N)c2c(=O)[nH]1	-1.33	x
Cc1ccccc1N1C(=O)N(Cc2cc(=O)n3ccccc3n2)c2ccccc2S1(=O)=O	x	1.1

(more compounds)
SMILES	CDC25B CDK2 inh	TAR Tat displ
COc1ccc2c(c1)NC(c1ccc(C)o1)=NC(c1cccs1)=N2	-2.06	0.83
CCCOCCOC(=O)C1=C(C)NC2=C(C(=O)CCC2)C1c1ccc(OC)cc1OC (centres undefined)	-1.01	0.56
O=C(NC1CC1)c1cnc2sc(N3CCCCC3)nn2c1=O	x	0.72
c1ccc2c(c1)nc(NCCc1c[nH]c3ccccc13)n1nc(-c3ccncc3)nc21	-1.48	0.47
CC12CN3CC(C)(CN(C1)C3c1ccc(Cl)cc1)C2=O (centres undefined)	0.97	x
CCN1C(C(=O)c2ccccc2)=C(OC(=O)c2ccc(F)cc2)c2ccccc2S1(=O)=O	-0.64	1.21
CC1=C(C(=O)OCCc2ccccc2)C(c2ccc3c(c2)OCO3)C2=C(CC(C)(C)CC2=O)N1 (centres undefined)	9.31	1.99
COc1cnc(CSc2nc(C)cc(C)n2)cc1OCC(N)=O	x	0.87
Nc1n[nH]c2cccc(Cl)c12	-1.76	x
Cc1nn2c(nc1=O)NNC2(C)c1ccccc1 (centres undefined)	-1.45	x
CCc1nnc(SCC(=O)Nc2ccc(F)cc2F)c2cc3occc3n12	x	-1.45
CC(C)(C)NC[C@@H](O)COc1nsnc1N1CCOCC1	x	1.2
Nc1nc(NCc2ccc(-c3cccs3)s2)n[nH]1	-1.83	x
CN(C(=O)Nc1ccccc1)c1c2c(nn1C)CCCC2	-0.84	x
O=C(CC1(O)C(=O)Nc2ccc(Cl)cc21)c1ccncc1 (centres undefined)	x	-0.01
Cn1cnc(S(=O)(=O)N2CCCC(C(=O)N3CCN(c4ncccn4)CC3)C2)c1 (centres undefined)	x	1.12
CCN(CC)C(=O)C1CCC(Cn2c(=O)c3sccc3n(CC(=O)NC(C)C)c2=O)CC1 (centres undefined)	x	1.24
